RGS16-Gao HTS – RGS16-Galphao interaction regulator (human) | actives 0.38% (n = 220,000) | bead-based flow cytometry RGS16-Galphao binding, fluorescence; actives lie on both sides | O15492+P09471 | binding response (% of control), % at 10 µM | AID 1441;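 active means below 25% or above 175%, edge rows of some plates excepted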;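 further: Galphao activated by GDP with aluminum fluoride before binding; 100% = wells without compound and 0% = beads without RGS; some results beyond the cut were filed as inactive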
Target sequence (O15492 whole entry, looked up): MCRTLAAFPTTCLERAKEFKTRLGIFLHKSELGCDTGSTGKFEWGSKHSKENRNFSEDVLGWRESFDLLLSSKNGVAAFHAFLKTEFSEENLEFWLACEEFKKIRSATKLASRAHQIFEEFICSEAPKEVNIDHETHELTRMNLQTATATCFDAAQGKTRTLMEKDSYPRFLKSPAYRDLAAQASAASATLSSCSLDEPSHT
Target sequence (P09471 whole entry, looked up): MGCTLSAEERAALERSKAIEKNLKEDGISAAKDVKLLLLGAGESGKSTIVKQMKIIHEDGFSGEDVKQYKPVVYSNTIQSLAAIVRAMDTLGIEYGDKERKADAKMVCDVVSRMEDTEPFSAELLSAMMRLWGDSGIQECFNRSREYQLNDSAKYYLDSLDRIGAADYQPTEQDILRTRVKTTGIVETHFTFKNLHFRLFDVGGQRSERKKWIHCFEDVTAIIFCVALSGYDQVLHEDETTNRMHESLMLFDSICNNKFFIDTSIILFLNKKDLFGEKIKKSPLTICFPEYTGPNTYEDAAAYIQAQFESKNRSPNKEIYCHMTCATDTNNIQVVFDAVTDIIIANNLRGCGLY
Insulin prom inh – TRM-6 insulin promoter activity inhibition. AID 1273. TRM-6 cells (human fetal islet line), insulin promoter-eGFP reporter, imaging; reporter expression induced with tamoxifen. inhibition, % at 2 µM. actives 0.9% (n = 130,000);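 active means inhibition above the mean plus 3 SD, with well images judged a real hit on visual review, cut at about 60% in these data, passing the limit was not always enough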
HSV replic up – increases HSV replication in cells | HSV replication augmentation in cells, fold increase | maximum fold increase | actives 0.005% (n = 220,000);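 active means peak rise of 1.5-fold or more in the series; tested in PC3 cells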;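 further: first round at 10 µM; read as green reporter fluorescence; hits show the peak of a series up to 25 µM; 1 = signal of infected wells without compound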
GALR2 agonist – GALR2 (human) receptor agonism. O43603. actives 0.48% (n = 140,000). activation, %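 (tested at 5 µM)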. GALR2-expressing cells, agonist activation read-out;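 active means above mean plus 3 SD of all compounds, about 5% in these data, not always enough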;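 further: 0% = vehicle buffer wells and 100% = reference agonist at full effect; tested in CHO reporter cells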
Target sequence (O43603 whole entry, looked up): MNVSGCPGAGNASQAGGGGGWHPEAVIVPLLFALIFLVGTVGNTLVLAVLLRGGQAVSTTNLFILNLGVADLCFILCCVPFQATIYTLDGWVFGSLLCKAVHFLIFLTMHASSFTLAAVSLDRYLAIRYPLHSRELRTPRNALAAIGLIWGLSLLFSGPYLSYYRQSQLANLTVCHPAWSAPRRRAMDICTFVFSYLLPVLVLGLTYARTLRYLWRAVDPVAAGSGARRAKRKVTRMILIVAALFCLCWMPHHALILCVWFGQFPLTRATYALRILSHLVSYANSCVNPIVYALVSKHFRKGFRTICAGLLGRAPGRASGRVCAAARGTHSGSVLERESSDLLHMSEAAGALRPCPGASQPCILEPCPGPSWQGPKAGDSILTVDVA
PKD1 kinase inh – inhibitors of human PKD1 kinase. inhibition, %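 (about 10 µM by stock and volumes)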. AID 797. PKD1 kinase fluorescence polarization assay. actives 0.056% (n = 200,000). Q15139;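 active means inhibition of 50% or more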;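 further: controls were vehicle for no effect and a reference inhibitor for full effect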
Insulin prom inh cell count – further read-out of Insulin prom inh, marked with its call; normalized cell count, %; measured here: cell count, toxicity; reference of the scale not given here;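 cells exposed to compound for 48 h; stained nuclei by imaging scaled within each plate; lower means fewer cells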
HSV replic up primary fold – also measured in HSV replic up; calls as there; fold increase; compound at 10 µM; measured here: primary screen fold increase 10 uM; tested in PC3 cells;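 GFP signal in the first replicate; 1 = infected wells without compound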
Numbers without * were called inactive; i = inactive; . = no result given.

SMILES | RGS16-Gao HTS | Insulin prom inh | Insulin prom inh cell count | HSV replic up | HSV replic up primary fold | GALR2 agonist | PKD1 kinase inh
CCOC(=O)c1nn(-c2ccccc2)c2nnc(Cc3ccc(Cl)cc3)c(=O)n12 | 37 | -21 | 74 | i | 0.91 | -0.3 | -14
COc1cc(/C=N/O)ccc1OCc1ccc(C(=O)O)cc1 | 60 | . | . | i | 1.1 | -1.9 | -11
O=C(CSc1ccc(Cl)cc1)Nc1cc(-c2nc3ncccc3o2)ccc1Cl | 108 | . | . | i | 0.77 | -0.8 | 4
CCN(CCCNC(=O)CCc1nc(-c2ccc(OC)cc2)no1)c1cccc(C)c1 | 89 | 16 | 33 | i | 0.92 | -2.5 | 9
Cc1nnc(Nc2ccc(Cl)c(C(F)(F)F)c2)[nH]c1=O | 92 | . | . | i | 0.93 | . | 2
O=C(c1ccc2c3c(cccc13)CC2)C1CCCN(C(=O)c2cccnc2)C1 (stereo unspecified) | 95 | 0 | 118 | i | 1.2 | . | 11
CCOP(=O)(OCC)c1nc(/C=C/c2ccccc2)oc1NCc1ccccc1 | 148 | 35 | 59 | i | 0.85 | 7.3 | 1
Cc1cc(/C=N/Nc2nc(N)ncc2[N+](=O)[O-])c(C)n1-c1ccccc1F | 94 | . | . | i | 0.83 | . | .
COC(=O)CCC(NC(=O)OCc1ccccc1)C(=O)NC(CC(C)C)C(=O)OC (stereo unspecified) | 96 | -36 | 64 | i | 1 | -3.2 | -3
COc1ccc(N(CC(=O)Nc2cccc(OC)c2)S(=O)(=O)c2c(C)nn(C)c2C)cc1 | 100 | . | . | i | 0.99 | -2.9 | -13
O=C1CCCN1c1ccc(S(=O)(=O)N2CCN(c3ccccn3)CC2)cc1 | 118 | 56 | 101 | i | 0.98 | -1.9 | -2
CN(C)CCCNC(=O)COc1ccc(Br)cc1Cl | 108 | -11 | 143 | i | 0.9 | -0.3 | -12
Cc1cccc(NC(=O)c2cc(-c3ccco3)nc3ccccc23)n1 | 97 | -5 | 132 | i | 0.93 | -2.8 | -6
O=C(O)C1CCCCC1C(=O)Nc1ccccc1Nc1ccccc1 (stereo unspecified) | 106 | . | . | i | 0.99 | -0.3 | -6
CCOC(=O)C(=O)Nc1sc(C(=O)N2CCOCC2)c(C)c1C#N | 106 | . | . | i | 0.98 | . | -5
O=C(O)C1Sc2[nH]c(=O)sc2C2c3cc(Cl)ccc3OC(=O)C12 (stereo unspecified) | 89 | . | . | i | 0.96 | -3.0 | 3
COc1ccc(/C=C(/C(=O)NCc2ccccc2)c2ccccc2)cc1 | 58 | 13 | 81 | i | 1.1 | -1.8 | 3
CC(=O)c1c(C)[nH]c(C(=O)CSc2nc3ccc(C)cc3[nH]2)c1C | 110 | 15 | 253 | i | 1 | -0.4 | 2
CC1CN(S(=O)(=O)c2ccc(C(=O)Nc3ccc(S(=O)(=O)Nc4nccs4)cc3)cc2)CC(C)O1 (stereo unspecified) | 102 | 10 | 99 | i | 0.95 | -1.0 | -3
CC[N+](CC)(CCO)CCCN1C(=O)C2CC=C(Cl)CC2C1=O (stereo unspecified) | 76 | . | . | i | 1 | -1.9 | -3
C[C@H]1[C@H](C)CC[C@]2(C)CC[C@]3(C)C(=CC[C@@H]4[C@@]5(C)CC[C@@H](O)[C@](C)(C(=O)O)[C@@H]5CC[C@]43C)[C@H]12 | 98 | . | . | i | 0.87 | . | .
CCOc1ccc(C(=O)NC(=S)Nc2ccc(NC(=O)c3ccco3)c(C)c2)cc1[N+](=O)[O-] | 102 | . | . | i | 0.87 | 0.6 | -6
O=C(Cc1cccs1)NCc1ccc2c(c1)OCO2 | 107 | 31 | 112 | i | 1 | -2.0 | 1
Cn1ncc2c(Nc3ccc4ccccc4c3)ncnc21 | 78 | . | . | i | 0.92 | -4.5 | -1
O=C(N/C(=C/c1cccnc1)C(=O)N1CCOCC1)c1ccccc1F | 100 | . | . | i | 0.93 | . | .

(more compounds)
SMILES | RGS16-Gao HTS | Insulin prom inh | Insulin prom inh cell count | HSV replic up | HSV replic up primary fold | GALR2 agonist | PKD1 kinase inh
CCc1ccc(CNC(=O)Cn2nc(-c3ccc(C)cc3)ccc2=O)cc1 | 67 | -73 | 50 | i | 0.91 | . | -2
C[C@H]1C=C(C(=O)N2CCOCC2)O[C@@H](OCc2ccc(CO)cc2)C1 | 114 | . | . | . | . | . | 2
C=CCN(C(=O)CCC(=O)Nc1cc(C)on1)C(C(=O)NC(C)(C)C)c1cccc(OC)c1OC (stereo unspecified) | 99 | -104 | 92 | i | 0.87 | -0.8 | -8
OC(CN1CCN(c2ccccc2)CC1)Cn1c2ccccc2c2ccccc21 (stereo unspecified) | 101 | 8 | 97 | i | 0.89 | -0.4 | -6
NC1=NC[C@H](Cc2ccccc2)N1CCc1cccc(F)c1 | 103 | . | . | i | 0.63 | . | .
COc1cc(CN(C(=S)NCC(=O)NC2CCCC2)C2CCCC2)cc(OC)c1OC | 107 | 7 | 106 | i | 0.91 | 0.2 | -4
O=C(/C=C/c1ccco1)Nc1ccc2c(c1)OCO2 | 84 | . | . | i | 0.72 | . | -3
O=C(CCSc1nc2ccccc2o1)N1CCOCC1 | 102 | -4 | 203 | i | 0.93 | -2.4 | -4
COCCOC(=O)C1=C(C)NC2=C(C(=O)CC(C)(C)C2)C1c1ccc(N(C)C)cc1 (stereo unspecified) | 43 | . | . | i | 1 | -1.9 | -16
CC(C)CC(=O)N1CCN(S(=O)(=O)c2ccc3ccccc3c2)CC1 | -643 | 25 | 51 | i | 0.87 | -1.0 | -6
COCC(=O)Nc1ccc(C(C)C)cc1 | 103 | 0 | 101 | i | 0.89 | -3.7 | -3
O=C(c1ccccc1)c1ccc2nc(-c3ccc(NC(=O)c4ccccc4Br)cc3)[nH]c2c1 | 102 | . | . | . | . | -2.0 | 2
COC(=O)C(NC(C)=O)(Nc1cccc(C)n1)C(F)(F)F (stereo unspecified) | 98 | . | . | i | 1.2 | . | .
CC1Cc2ccccc2N1C(=O)c1cnc2n(c1=O)CCS2 (stereo unspecified) | 99 | . | . | i | 0.92 | -2.6 | 0
O=C(Nc1cccc(Cl)c1)N(CCN1CCOCC1)Cc1cccc(Cl)c1 | 115 | -58 | 107 | i | 0.95 | -1.8 | 0
Cc1ccc(CNC(=O)CCn2c(=O)oc3ccccc32)cc1 | 99 | . | . | i | 0.85 | . | .
CCCCCC1CCC(c2ccc(C(N)=O)cc2)CC1 (stereo unspecified) | 73 | . | . | i | 0.91 | -2.4 | -10
COc1ccccc1/C=C/C1(C(=O)NC2CCCC2)CC(=O)N1c1ccc(C)cc1 (stereo unspecified) | . | -44 | 123 | i | 0.82 | -0.5 | 1
CC1CCN(C(=O)CSCC(=O)Nc2nc(-c3cccs3)cs2)CC1 | 101 | 0 | 164 | i | 1.1 | -0.5 | 1
CCOC(=O)c1cc2c(=O)n3ccccc3nc2n(C(C)C)c1=NC(=O)c1ccncc1 | 58 | -86 | 152 | i | 0.7 | 7.2 | -9
COCc1cc(SC2CCCCC2)nc(C)n1 | 103 | . | . | i | 1 | . | -2
COc1cc(C(=O)NCc2nnc(SCC(=O)Nc3ccc4c(c3)OCO4)o2)cc(OC)c1OC | 87 | 0 | 136 | i | 1 | . | 1
Cc1ccc(S(=O)(=O)Nc2cc(C(=O)NCCN(C)C)ccc2N2CCCCC2)cc1 | 104 | . | . | i | 0.95 | -2.4 | -6
Cc1cc(C)c2cc(C(=O)N3CCc4ccccc4C3)[nH]c2c1 | 94 | . | . | i | 0.88 | . | .
Cc1ccc(-c2noc(CCC(=O)Nc3ccc(C)cn3)n2)cc1 | 101 | 0 | 98 | i | 0.86 | -1.9 | 1

Retrieved by compound from the list above, 2 records:
SMILES | RGS16-Gao HTS | Insulin prom inh | Insulin prom inh cell count | HSV replic up | HSV replic up primary fold | GALR2 agonist | PKD1 kinase inh
COc1cc(C(=O)NCc2nnc(SCC(=O)Nc3ccc4c(c3)OCO4)o2)cc(OC)c1OC | 87 | 0 | 136 | i | 1 | . | 1
O=C(CCSc1nc2ccccc2o1)N1CCOCC1 | 102 | -4 | 203 | i | 0.93 | -2.4 | -4

Continued:
SMILES | RGS16-Gao HTS | Insulin prom inh | Insulin prom inh cell count | HSV replic up | HSV replic up primary fold | GALR2 agonist | PKD1 kinase inh
CN1CCN(c2cnn(-c3ccccc3)c(=O)c2Br)CC1 | 99 | . | . | i | 0.84 | . | 5
Cc1ccccc1C(=O)c1c[nH]c(C(=O)NCc2cccs2)c1 | 99 | 67 | 112 | i | 0.86 | -1.7 | -3
OC(COc1ccc(CNCCc2ccccc2F)cc1)CN1CCCCC1 (stereo unspecified) | 102 | . | . | i | 0.89 | . | 0
CCN(CC)c1ccc2c(Nc3ccccc3)c(C=O)c(=O)oc2c1 | 119 | -181 | 48 | i | 1 | . | 4
COc1ccc(-c2c[nH]c(=O)[nH]c2=O)cc1OC | 108 | . | . | i | 1 | . | 0
Cc1nn(CCC(=O)NNC(=S)Nc2ccc(Cl)cc2)c(C)c1[N+](=O)[O-] | 78 | 23 | 89 | i | 1 | -1.6 | 5
CC(=O)Nc1cccc(NC(=O)C2CCCN2C(=O)Nc2ccc(Cl)cc2)c1 (stereo unspecified) | 105 | . | . | i | 0.87 | -2.4 | 1
COc1cccc(-c2csc(N3CCN(CC(=O)NNC(=O)c4ccc(Br)cc4)CC3)n2)c1 | 101 | 12 | 96 | i | 0.88 | -2.8 | 4
Cc1ccc(C(=O)NN(C)c2nc3ccccc3nc2C(F)(F)F)cc1 | 97 | -11 | 72 | i | 0.73 | -0.2 | -8
CN1/C(=C\C(=S)NC(=O)c2ccccc2Cl)C(C)(C)c2ccccc21 | 97 | 6 | 48 | i | 1.2 | -1.6 | -2
Cc1ccccc1CN1CCN(S(=O)(=O)c2ccc(F)cc2)CC1 | 106 | -31 | 102 | i | 1.2 | -1.0 | -7
COc1ccc(N2CCN(C(=O)c3ccc(OCc4c(C)noc4C)c(OC)c3)CC2)cc1 | 100 | 6 | 135 | i | 0.93 | -3.4 | 3
Nc1nonc1-c1nc2ccccc2n1CC(=O)N1CCCCC1 | 111 | -13 | 98 | i | 0.87 | -1.0 | -9
COc1ccc(CCNC(=O)CSc2ccccn2)cc1 | 100 | -24 | 120 | i | 1.1 | . | 0
O=C(O)C1C2C=CC3(CN(Cc4ccco4)C(=O)C13)O2 (stereo unspecified) | 157 | . | . | i | 0.97 | -2.2 | 3
O=C(NCCC1=CCCCC1)c1cc(-c2ccncc2)nc2ccccc12 | 102 | -40 | 50 | i | 1 | . | 6
COc1cccc(N2C(=O)C3C(C2=O)C2C=CC3C23CC3)c1 (stereo unspecified) | 93 | -5 | 154 | i | 0.92 | -3.1 | -3
O=C(CC(Nc1ccc(F)cc1)c1ccccc1)c1ccccc1 (stereo unspecified) | 100 | 18 | 82 | i | 0.96 | -0.2 | -11
CCSc1nc(-c2ccccc2)c(-c2ccccc2)n1CC(O)CO (stereo unspecified) | 102 | . | . | i | 1 | . | -1
C/C(=N\Nc1ncc(Cl)cc1Cl)c1ccc(N2CCOCC2)cc1 | 98 | . | . | i | 0.83 | . | -12
COC(=O)CN1C(=O)C(O)(CC(=O)c2ccc(Br)cc2)c2ccccc21 (stereo unspecified) | 103 | . | . | i | 0.93 | -1.8 | -5
CCn1nc(C)c(NC(=O)c2ccc(Br)o2)c1C | 101 | -21 | 138 | i | 1.1 | 0.2 | -3
O=C(O)C1CCCCC1C(=O)N1CC=C(c2ccccc2)CC1 (stereo unspecified) | 102 | 17 | 79 | i | 0.93 | -0.5 | -9
CN1CCN(CCCn2cnc3c(=O)oc4ccccc4c32)CC1 | 167 | 45 | 71 | i | 0.87 | -4.3 | 0
Cc1ccc(OCC(=O)NNC(=O)c2cccnc2)cc1C | 77 | -7 | 62 | i | 1.1 | . | 8
CCOC(=O)C1=C(C)NC(C)=C(C(=O)OCC)C1C(=O)OCC(=O)N1CCCCC1CC (stereo unspecified) | 103 | 25 | 96 | i | 0.98 | 0.2 | 5

Some of these compounds in order of heavy-atom count, highest first:
SMILES | RGS16-Gao HTS | Insulin prom inh | Insulin prom inh cell count | HSV replic up | HSV replic up primary fold | GALR2 agonist | PKD1 kinase inh
Cc1nn(CCC(=O)NNC(=S)Nc2ccc(Cl)cc2)c(C)c1[N+](=O)[O-] | 78 | 23 | 89 | i | 1 | -1.6 | 5
Cc1ccccc1CN1CCN(S(=O)(=O)c2ccc(F)cc2)CC1 | 106 | -31 | 102 | i | 1.2 | -1.0 | -7
COc1cccc(N2C(=O)C3C(C2=O)C2C=CC3C23CC3)c1 (stereo unspecified) | 93 | -5 | 154 | i | 0.92 | -3.1 | -3
COc1ccc(CCNC(=O)CSc2ccccn2)cc1 | 100 | -24 | 120 | i | 1.1 | . | 0
CCn1nc(C)c(NC(=O)c2ccc(Br)o2)c1C | 101 | -21 | 138 | i | 1.1 | 0.2 | -3

Compounds were not picked by outcome, and some 1.1% of all compounds hit somewhere here.
